# Screens from PubChem.
# CSC inhib = cancer stem cell viability inhibitors, primary screen, luminescence | inhibition, % at 7.5 µM | AID 2717, 2010 | actives 1.1% (n = 300,000) | cancer stem cell-like cells viability;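 active means mean at 75% or more and at least half the replicates too; tested in HMLE shEcad cells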;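 further: 0% = median of negative and 100% = median of positive control wells; the first replicate is given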
# HIV Env fusion = inhibitors of HIV-1 Env-driven cell-cell fusion, primary screen, HeLa-JRFL effector, CEM21 target cells, luciferase; inhibition, % at 12.3 µM; actives 1.1% (n = 360,000);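 active means mean replicate inhibition score of at least 50 and every replicate individually at or above 50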;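 further: 0% = plate neutral controls and 100% = maraviroc near 300 nM; one replicate is shown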
# eIF4H inh = human eIF4H binding inhibitors, primary screen, translation initiation inhibitor project, biochemical, uHTS, fluorescence polarization. actives 0.94% (n = 290,000). inhibition, % at 35 µM. eIF4H fluorescence polarization binding assay;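 active means 50% or more with normal probe brightness, or confirmed in later tests; about a fifth of its hits are not listed in these tables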;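 further: calls also rest on retests at 20 µM and on dose response follow-up; 0% = protein and probe with vehicle and 100% = probe without protein; strong numbers were not always called active; many hits fall short of the cut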
# Rce1 inh = yeast Rce1p protease inhibitors, primary screen, biochemical, fluorescence, cell-free homogeneous. CAAX prenyl protease 2 (Saccharomyces cerevisiae (strain ATCC 204508 / S288c)), Q03530. yeast membranes, quenched prenylated peptide cleavage fluorescence. calls only. actives 0.27% (n = 290,000);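 active means fall in fluorescence gain of 50% or more versus controls, with final raw signal at or below 3038400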;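 further: plate controls were neutral control wells for no effect and wells lacking membranes for full effect; tested at 10 µM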
# Target sequence (Q03530 whole entry, looked up): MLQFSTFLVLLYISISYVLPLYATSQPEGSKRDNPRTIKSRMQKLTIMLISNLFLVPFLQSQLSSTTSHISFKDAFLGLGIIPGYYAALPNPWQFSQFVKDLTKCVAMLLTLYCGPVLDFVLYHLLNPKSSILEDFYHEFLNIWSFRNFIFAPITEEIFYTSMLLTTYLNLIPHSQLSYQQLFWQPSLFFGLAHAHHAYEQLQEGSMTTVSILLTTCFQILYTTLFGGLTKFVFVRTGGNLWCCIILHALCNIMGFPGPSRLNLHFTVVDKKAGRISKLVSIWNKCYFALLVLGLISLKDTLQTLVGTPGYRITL
# Yeast UUG start = modulators of yeast start codon fidelity, primary screen, whole organism, S. cerevisiae, single point, plate reader; activity score, % at 18.7 µM; actives 0.13% (n = 350,000); S. cerevisiae UUG-firefly luciferase reporter, luminescence/redox ratio;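 active means replicate mean at a twofold rise or more, about +100% in these data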;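 further: firefly luciferase made from a UUG start codon reports start codon fidelity; reporter light over untreated wells divided by growth signal over untreated wells; some hits fall short of that in this replicate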
# PABP polyA inh = PABP poly(A) RNA binding inhibitors, primary screen, biochemical, fluorescence polarization, uHTS; inhibition, % at 35 µM; actives 1% (n = 290,000);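 active means 50% or more with normal probe brightness, or confirmed in later tests; about a fifth of its hits are not listed in these tables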;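 further: calls also rest on retests at 20 µM and on dose response follow-up; controls were probe without protein and protein plus probe with vehicle; some compounds called inactive have numbers as strong as hits; many hits fall short of the cut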
# Target sequence (P11940 whole entry, looked up): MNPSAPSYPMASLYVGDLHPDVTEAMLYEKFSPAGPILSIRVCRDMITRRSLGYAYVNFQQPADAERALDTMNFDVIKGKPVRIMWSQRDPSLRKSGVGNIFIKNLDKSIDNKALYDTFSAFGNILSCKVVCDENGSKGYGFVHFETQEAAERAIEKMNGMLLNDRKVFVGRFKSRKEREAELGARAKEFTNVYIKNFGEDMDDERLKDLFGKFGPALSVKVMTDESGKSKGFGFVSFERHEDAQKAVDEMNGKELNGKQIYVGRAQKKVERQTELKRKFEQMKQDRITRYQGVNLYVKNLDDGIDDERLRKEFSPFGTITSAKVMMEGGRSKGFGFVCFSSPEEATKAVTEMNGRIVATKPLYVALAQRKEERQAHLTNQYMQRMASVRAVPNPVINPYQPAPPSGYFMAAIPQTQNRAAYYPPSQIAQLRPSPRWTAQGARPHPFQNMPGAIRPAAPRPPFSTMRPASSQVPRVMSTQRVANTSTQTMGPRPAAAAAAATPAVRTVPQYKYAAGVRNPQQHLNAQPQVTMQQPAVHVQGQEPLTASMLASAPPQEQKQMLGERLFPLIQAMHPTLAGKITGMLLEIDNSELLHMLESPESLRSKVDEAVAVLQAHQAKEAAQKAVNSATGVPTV
# MT1-MMP act inh = blockers of MT1-MMP proenzyme processing, primary screen, HT1080 RFP-PRO-GFP cells, GFP/RFP fluorescence; Matrix metalloproteinase-14 (Homo sapiens), P50281; GFP/RFP ratio fluorescence, overnight; percent of plate control window, DMSO zero; GFP/RFP ratio change, % at 20 µM; actives 0.061% (n = 360,000);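 active means GFP/RFP ratio change of at least 30% with cell ATP level not reduced by more than half and red fluorescence within 50% of control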; further: strong numbers were not always called active
#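 Material – HT1080 RFP-PRO-GFP cells · Control set – DMSO wells and RFP-L50D-GFP cells · Incubation – overnight cell settling, then overnight compound exposure, 37 °C, 5% CO2 · Compound dosing – single-point 20 µM compound, 1% DMSO · Read-out – GFP/RFP fluorescence ratio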
# eIF4H inh retest = further read-out of eIF4H inh, marked with its call; inhibition, %; compound at 20 µM; confirmation average;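 mean of two retest wells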
# PABP polyA inh retest = further read-out of PABP polyA inh, marked with its call; inhibition, %; compound at 20 µM; confirmation repeats;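 mean of two retest wells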
# MT1-MMP act inh RFP = second read-out of MT1-MMP act inh, no call of its own (marks repeat the call); RFP signal change, %; measured here: RFP expression control read;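 0 = vehicle wells; hits needed this value within 50% of zero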
# * = called active by the depositor; i = inactive; . = no result given.
SMILES,CSC inhib,HIV Env fusion,eIF4H inh,Rce1 inh,Yeast UUG start,PABP polyA inh,MT1-MMP act inh,MT1-MMP act inh RFP,others
COc1ccc(NC(=O)C(=O)c2cn(CC(=O)N3CCCC3)c3ccccc23)c(OC)c1,-11,2,-4,i,-2,0,1,0,
CC1CCCCN1C(=O)CSc1nc(N)cc(=O)[nH]1 (stereo unspecified),-10,.,1,i,-7,13,-6,1,
COc1ccc(C(=O)n2nc(-c3ccco3)nc2N)cc1,-12,-13,93,i,-23,101,3,11,eIF4H inh retest=2;PABP polyA inh retest=6
CNC(=O)c1c(NC(=O)c2ccc(S(=O)(=O)N3CCCCC3C)cc2)sc2c1CCN(C)C2 (stereo unspecified),-10,-29,-15,i,0,-13,-22,-1,
COC(=O)Cn1c(CN2CCN(c3ccccc3F)CC2)nc2c1c(=O)n(C)c(=O)n2C,.,10,.,.,-7,.,-4,-16,
CC(C)Oc1ccc(CNCCC2(C(C)C)CCOC(C)(C)C2)cc1 (stereo unspecified),10,14,-8,i,-1,-3,2,-2,
CCN1CCCC1CNC(=O)c1ccc(N2CCOCC2)c(NS(=O)(=O)c2ccc(OC)cc2)c1 (stereo unspecified),-1,1,-3,i,.,18,0,-1,
Cc1onc(-c2c(F)cccc2Cl)c1C(=O)NC(=S)NC1CCSC1=O (stereo unspecified),19,9,-1,i,-8,-8,-9,2,
COc1cnn(Cc2ccccc2)c(=O)c1SCc1ccccc1,2,7,5,i,-23,4,12,4,
CCOC(=O)c1nnn(-c2nonc2OC)c1-c1ccccc1,-15,5,-17,i,7,-8,0,3,

# Reprinted at random: 2 compounds from above, in no set order.
SMILES,CSC inhib,HIV Env fusion,eIF4H inh,Rce1 inh,Yeast UUG start,PABP polyA inh,MT1-MMP act inh,MT1-MMP act inh RFP,others
COc1ccc(C(=O)n2nc(-c3ccco3)nc2N)cc1,-12,-13,93,i,-23,101,3,11,eIF4H inh retest=2;PABP polyA inh retest=6
CCN1CCCC1CNC(=O)c1ccc(N2CCOCC2)c(NS(=O)(=O)c2ccc(OC)cc2)c1 (stereo unspecified),-1,1,-3,i,.,18,0,-1,

# Later entries
SMILES,CSC inhib,HIV Env fusion,eIF4H inh,Rce1 inh,Yeast UUG start,PABP polyA inh,MT1-MMP act inh,MT1-MMP act inh RFP,others
Cc1cc(C=O)c(C)n1-c1ccc(N2CCCC2)c([N+](=O)[O-])c1,-15,.,-8,i,-6,4,-3,-8,
CC1(C)C2CCC1(CS(=O)(=O)NCc1ccc(Cl)cc1Cl)C(=O)C2 (stereo unspecified),.,7,-10,i,3,-6,0,-4,
CC(=O)N1CCN(C(=O)c2cc(S(=O)(=O)NCc3ccccc3)ccc2C)CC1,.,.,-6,i,-3,-14,-2,2,
O=C(NC(=S)NC(CO)c1ccccc1)c1ccc(F)cc1 (stereo unspecified),-3,-10,-2,i,-1,15,2,1,
COc1cc(/C=N/NC(=O)Cc2c[nH]c3ccccc23)cc(OC)c1OC,-5,3,22,i,.,-7,4,6,
COC(=O)c1c(NC(=O)C(C)C)sc2c1CCN(Cc1ccccc1)C2,.,32,-15,i,-9,7,4,-5,
NS(=O)(=O)c1ccc(CCNC(=O)c2cc3ccccc3oc2=O)cc1,-7,-32,-5,i,-6,5,-1,-4,
O=C(CSc1ccccc1C(=O)O)Nc1cccc(C(=O)O)c1,-15,1,2,i,-10,1,3,3,
Cc1cccc(-c2nnc(SCCOc3ccc4c(C)cc(=O)oc4c3)o2)c1,-4,.,4,i,-10,2,0,-3,
Cc1ccc(C2=NS(=O)(=O)N(C)C(C(=O)NC3CCCC3)=C2)cc1,-5,-12,-6,i,-13,-5,5,1,
CC(C)c1nc2sc3c(=O)n(N)cnc3c2c2c1COC(C)(C)C2,4,0,-16,i,-4,-9,3,3,
O=S(=O)(c1ccc(F)cc1)N1CCN(c2ncccn2)CC1,-15,-7,2,i,.,-12,2,4,
O=c1[nH]cnc2c1c(-c1ccccc1)cn2-c1ccccc1,-5,4,0,i,8,-2,5,1,
Cc1nc(SCC(=O)NC(=O)NCc2ccco2)nc(C)c1C,-12,12,65,i,.,4,1,4,eIF4H inh retest=-7;PABP polyA inh retest=18
Cc1c(C(c2ccc(O)cc2)c2c(C)n(C)n(-c3ccccc3)c2=O)c(=O)n(-c2ccccc2)n1C,-14,13,-9,i,13,-9,2,1,
CC(NC(=O)c1ccco1)C1CCCO1 (stereo unspecified),-13,-8,8,i,-13,-2,3,3,
CCOc1ccc(NC(=O)CN(C)C(=O)c2ccc(OCc3ccccc3)c(OC)c2)cc1OCC,-16,.,.,i,-6,.,4,-2,
CC(C)COP(=O)(c1ccc(N(C)C)cc1)C(Nc1ccccc1)c1ccccc1 (stereo unspecified),-16,46,5,i,-14,2,.,.,
O=C(C1=C[C@H](c2coc3ccccc3c2=O)C[C@H](OCc2ccc(CO)cc2)O1)N1CCN(Cc2ccccc2)CC1,1,.,5,i,0,-1,-2,-9,
CC(=O)N1CCN(C(=O)c2ccc3c(c2)OCCO3)CC1,3,-3,-8,i,-10,6,-5,4,
O=C(COc1ccc(Cl)cc1)NNC(=O)c1cccnc1,-6,4,-6,i,.,2,6,4,
O=C(NC1CC1)c1cccc(NC(=O)C2CCN(S(=O)(=O)c3ccccc3C(F)(F)F)CC2)c1,.,5,.,.,6,.,2,-1,
Cc1ccccc1NC(=O)Cn1cnc2c(oc3nc4c(cc32)COC(C)(C)C4)c1=O,-10,14,2,i,.,-3,2,7,
Clc1nccc(NCc2ccccc2)n1,-23,3,.,i,-20,.,1,3,
CCN(CC)S(=O)(=O)c1ccc(C(=O)NNC(=O)c2cccs2)cc1,1,-16,3,i,-10,8,-1,0,
CCOC(=O)C1CCCN(CC(O)COC(c2ccccc2)c2ccccc2)C1 (stereo unspecified),-9,19,-4,i,-8,1,0,1,
O=C(NCc1ccccc1)c1c(F)c(F)c(F)c(F)c1F,0,-20,-14,i,-4,-14,-9,-3,
CCOc1ccc(C(=O)n2cc(C(=O)OC)c3ccccc32)cc1OCC,-4,0,-13,i,-18,6,3,-1,
Oc1cc(O)c2c(c1)O[C@H](c1ccc(O)c(O)c1)[C@@H](O)C2,-9,-14,5,i,-18,18,0,0,
O=C(CCc1nc2ccccc2s1)c1ccccc1,.,-8,6,i,-8,9,8,6,
O=C(CCSCc1cccc(Cl)c1)NC1CCCC1,-11,20,-2,i,3,4,-2,0,
COC(=O)CSc1nnc(CNC(=O)c2ccccc2F)n1-c1ccccc1,-11,13,-4,i,.,-1,-1,0,
O=C(NCc1ccco1)/C(=C/c1cccc([N+](=O)[O-])c1)NC(=O)c1ccco1,-13,8,-12,.,-13,2,-5,1,
CC1CCC(C(=O)NC(C(=O)NCCCN2CCOCC2)C(C)C)CC1 (stereo unspecified),-20,-1,-1,i,-3,-10,5,4,
CCC1(C(=O)c2ccccc2)C2c3cc(Br)ccc3OC(=O)C21C(=O)N1CCOCC1 (stereo unspecified),.,.,1,i,-1,4,1,3,
COc1cc(N)c2ncccc2c1OC,.,1,.,.,-40,.,8,1,
COc1ccc2nc(/C=N/NC(=O)[C@H](CCSC)NC(=O)OC(C)(C)C)ccc2c1,-6,18,-12,i,.,18,-1,-2,
O=C(NCC(c1ccco1)N1CCCC1)c1ccccc1Sc1ccc(C(F)(F)F)cc1[N+](=O)[O-] (stereo unspecified),-2,35,.,i,-4,.,4,5,
COc1ccc(-c2nnc3ccc(SCC(=O)Nc4cc(C)on4)nn23)cc1OC,-9,14,-9,i,-23,-7,-2,-2,
CC(C)CCNC(=O)c1ccc2c(c1)ncn2C1CCCCC1,1,22,-3,i,-5,-9,-5,-1,

# Next section, starting with the last 6 of the part before.
SMILES,CSC inhib,HIV Env fusion,eIF4H inh,Rce1 inh,Yeast UUG start,PABP polyA inh,MT1-MMP act inh,MT1-MMP act inh RFP,others
CCC1(C(=O)c2ccccc2)C2c3cc(Br)ccc3OC(=O)C21C(=O)N1CCOCC1 (stereo unspecified),.,.,1,i,-1,4,1,3,
COc1cc(N)c2ncccc2c1OC,.,1,.,.,-40,.,8,1,
COc1ccc2nc(/C=N/NC(=O)[C@H](CCSC)NC(=O)OC(C)(C)C)ccc2c1,-6,18,-12,i,.,18,-1,-2,
O=C(NCC(c1ccco1)N1CCCC1)c1ccccc1Sc1ccc(C(F)(F)F)cc1[N+](=O)[O-] (stereo unspecified),-2,35,.,i,-4,.,4,5,
COc1ccc(-c2nnc3ccc(SCC(=O)Nc4cc(C)on4)nn23)cc1OC,-9,14,-9,i,-23,-7,-2,-2,
CC(C)CCNC(=O)c1ccc2c(c1)ncn2C1CCCCC1,1,22,-3,i,-5,-9,-5,-1,
Cc1nn(C)cc1C1C(C#N)=C(N)N(c2ccc(F)c([N+](=O)[O-])c2)C2=C1C(=O)CCC2 (stereo unspecified),5,1,39,i,-3,-1,.,.,
CCCCOc1ccc(NC(=O)C(=O)NCCC2=CCCCC2)cc1,1,-55,3,i,-4,-6,-2,-1,
Cc1nnc2n(-c3ccccc3)c(=O)c3c4c(sc3n12)COC(C)(C)C4,-4,.,-6,i,-4,3,4,8,
O=C(NNc1nc(-c2ccccc2)cs1)c1ccco1,16,-23,3,i,-18,1,12,5,
COc1ccccc1C(=O)NC(CCSC)C(=O)OCC(=O)N1CCCC1=O (stereo unspecified),-2,.,.,.,5,.,-5,-2,
CCOC(=O)c1ccc(C(=O)NNC(=O)C2C3C=CC(C3)C2C(=O)O)cc1 (stereo unspecified),-9,-4,1,i,-8,4,-1,-1,
CCC(=O)N1CCc2cc(S(=O)(=O)CCC(=O)N3CCCC(C)C3)ccc21 (stereo unspecified),-10,3,-11,i,0,6,3,1,
CCC(=O)Nc1ccc(S(=O)(=O)Nc2nccs2)cc1,-15,3,-9,i,-7,-6,1,4,
Cc1ccc2c(C)c(C(=O)N3CCC(O)(c4ccccc4)CC3)oc2c1C,0,15,3,i,-1,-3,-1,-2,
COC(=O)C1=C(C)N=c2s/c(=C/c3cccs3)c(=O)n2C1c1ccc(F)cc1 (stereo unspecified),-13,34,-5,i,-10,6,7,2,
CCN(CC)C(=O)c1ncn(C)c1C(=O)N(CC)CC,-11,-51,.,.,-8,.,1,4,
C/C(=N/NS(=O)(=O)c1ccc(C)cc1C)c1c[nH]c2ccccc12,-5,2,-14,i,-11,-9,6,-8,
Cc1cc(S(=O)(=O)N2CCOCC2)ccc1OCC(=O)Nc1ccc(F)c(Cl)c1,.,2,0,i,-10,-11,6,-3,
Cc1ccc(CN2CCN(Cc3cccn3-c3ccccn3)CC2CCO)o1 (stereo unspecified),-2,20,2,i,.,-4,0,-1,
COc1ccc(N/N=C/c2c(C(=O)O)ccc3ccccc23)cc1,109*,9,10,i,77,0,-33,-6,
COc1ccc(OC)c(C2CC(=O)N3CN(c4cccc(Cl)c4)CSC3=C2C#N)c1 (stereo unspecified),-7,5,6,i,-7,15,3,7,
Cc1cccc(N2CCN(C(=O)c3ccncc3)CC2)c1C,49,-185,2,i,-23,-12,-4,-8,
CNC(=O)CN(c1ccc2c(c1)OCCO2)S(C)(=O)=O,-1,-15,-9,i,-13,4,-2,-1,
O=C(NCc1ccco1)C1CCCN(S(=O)(=O)c2ccc(-n3cnnn3)cc2)C1 (stereo unspecified),.,-69,6,i,-2,11,-1,3,
COc1ccc(-c2ccc(C(=O)NCc3ccccc3)c3occc23)c(C)c1,.,-12,.,.,-19,.,4,-7,
COc1ccc(NC(=O)CN(C)C(=O)c2cc3c(cc2Cl)N2CCCCCC2=NS3(=O)=O)cc1,-8,-32,.,i,.,.,-5,0,
